Compound activity from PubChem.
Mtb hypoxia rep – Mtb hypoxia fluorescent reporter inhibition | M. tuberculosis hypoxia-regulated fluorescent reporter, fluorescence | fluorescence inhibition, % (concentration not given with the values) | 300,000 tested, 0.1% active | AID 1159583;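 active = 35 to 45% if threefold the growth effect, above 45% if 1.5-fold the growth effect; inactive = the rest, general growth blockers included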;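 also: wells of about 50 µL received 100 nL stock; 0% = vehicle wells and 100% = reference inhibitor wells; whole bacteria with a GFP reporter of the hypoxia response; strong numbers were not always called active; many hits fall short of the cut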
Autofluor counter – flagged as autofluorescent in microsphere protease counterscreen | compound autofluorescence counterscreen, microsphere flow cytometry; active compounds read high | fluorescence intensity (no concentration beside the values) | 360,000 tested, 3.1% active;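 active = at least 3 SD above the mean of all compounds, about 16000 in these data; inconclusive = too few beads counted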;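 also: 100 nL of 1 mM stock went into each well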
BJeLR viability – BJeLR cell viability loss. BJeLR (HRASV12) viability, CellTiter-Glo ATP luminescence, 48 h; reference of the scale not given here. inhibition, % (concentration not given with the values). 300,000 tested, 0.17% active. AID 1554;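 active = replicate mean above 50%; inconclusive = above 50% but judged a plate artefact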;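 also: 50 nL library stock added to about 25 µL; numbers are from one replicate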
PrP UTR inh – suppresses PrP 5' UTR mRNA reporter expression. inhibition, % (concentration not given with the values). 340,000 tested, 0.35% active. cell-based PrP 5' UTR mRNA reporter, plate reader. AID 488862;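 active = every replicate at 50% or more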;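 also: 0 = median of the neutral control wells; tested in H4 reporter cells; numbers are from one replicate; inactives centre near -14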
Sa RN4220 lethal – kills Staphylococcus aureus RN4220. S. aureus RN4220 growth, OD600, 16 h. AID 1259311. inhibition, % (test concentration not listed). 330,000 tested, 0.33% active;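 active = z-score of -3 or lower and OD600 up to 0.18 on both plates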;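 also: plate controls were untreated cells for no effect and reference antibiotic for full effect; stock transfer was 100 nL into about 80 µL; one replicate is shown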
ugtP null kill – growth inhibition of S. aureus ugtP deletion strain; S. aureus RN4220 ugtP deletion, OD600 growth, 16 h; some inactives read as strong as hits; growth inhibition, % (no concentration beside the values); 330,000 tested, 0.54% active; AID 1259309;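 active = z-score under -3 and OD600 up to 0.15 on both plates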;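 also: plate controls were untreated wells for no effect and antibiotic for full effect; wells of about 80 µL received 100 nL stock; the first replicate is given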
Mtb hypoxia rep growth – recorded beside Mtb hypoxia rep, whose call it bears; growth inhibition, %; measured here: M. tuberculosis growth (absorbance);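 0% = vehicle and 100% = reference antibiotic; read after six days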
Numbers without * were called inactive; ? = inconclusive; / = no result given.

Every second line gives: Mtb hypoxia rep | Mtb hypoxia rep growth | Autofluor counter | BJeLR viability | PrP UTR inh | Sa RN4220 lethal | ugtP null kill
O=C(CN1CCc2cc3c(cc2C1)OCCCO3)Nc1cccc([N+](=O)[O-])c1
    -5 | -11 | 4080 | 6 | 7 | 2.0 | 13
CCOC(=O)CSc1nc2ccccc2n1C(=O)OCC
    / | / | 6136 | -6 | 4 | 3.3 | 8
CCOP(=O)(OCC)C(Nc1cccc(C)c1)c1ccc(F)cc1 (stereo not given)
    8 | 0 | 2162 | 8 | -24 | 5.2 | 6
N/C(=N\OC(=O)CCc1ccccc1)c1ccccc1Cl
    4 | -4 | 2136 | -1 | -23 | 5.0 | 5
O=c1c2ccccc2[nH]c(=S)n1-c1ccc2c(c1)OCO2
    7 | -2 | 9245 | 8 | -20 | 1.1 | -12
CC[C@@]12C(=O)N(c3cccc(F)c3)C(=O)N1[C@H](c1cccc(C)c1)[C@@H]1C(=O)N(Cc3ccccc3)C(=O)[C@@H]12
    / | / | 3955 | 3 | -2 | / | /
Cc1cccc(-n2c(C)nc3ccsc3c2=O)c1
    10 | 3 | 4362 | 0 | -11 | -0.3 | 7
CCc1ccc(N=CC2=C(O)CC(c3ccco3)CC2=O)cc1 (stereo not given)
    / | / | 2695 | 1 | -6 | 0.4 | 3
Cn1c(=O)c(=O)n(C)c2cc(N3CCOCC3)c(NS(=O)(=O)c3ccc(F)c(Cl)c3)cc21
    -1 | -2 | 5339 | 7 | -23 | 1.1 | -4
COc1ccc(-c2n[nH]c(=S)n2N)c(OC)c1
    0 | 16 | 3756 | 1 | -21 | -2.3 | 8

Grouped by structure, those above with a Cl atom (2)
Every second line gives: Mtb hypoxia rep | Mtb hypoxia rep growth | Autofluor counter | BJeLR viability | PrP UTR inh | Sa RN4220 lethal | ugtP null kill
N/C(=N\OC(=O)CCc1ccccc1)c1ccccc1Cl
    4 | -4 | 2136 | -1 | -23 | 5.0 | 5
Cn1c(=O)c(=O)n(C)c2cc(N3CCOCC3)c(NS(=O)(=O)c3ccc(F)c(Cl)c3)cc21
    -1 | -2 | 5339 | 7 | -23 | 1.1 | -4

Returning to the listing; the 6 compounds before the break are reprinted first.
Every second line gives: Mtb hypoxia rep | Mtb hypoxia rep growth | Autofluor counter | BJeLR viability | PrP UTR inh | Sa RN4220 lethal | ugtP null kill
O=c1c2ccccc2[nH]c(=S)n1-c1ccc2c(c1)OCO2
    7 | -2 | 9245 | 8 | -20 | 1.1 | -12
CC[C@@]12C(=O)N(c3cccc(F)c3)C(=O)N1[C@H](c1cccc(C)c1)[C@@H]1C(=O)N(Cc3ccccc3)C(=O)[C@@H]12
    / | / | 3955 | 3 | -2 | / | /
Cc1cccc(-n2c(C)nc3ccsc3c2=O)c1
    10 | 3 | 4362 | 0 | -11 | -0.3 | 7
CCc1ccc(N=CC2=C(O)CC(c3ccco3)CC2=O)cc1 (stereo not given)
    / | / | 2695 | 1 | -6 | 0.4 | 3
Cn1c(=O)c(=O)n(C)c2cc(N3CCOCC3)c(NS(=O)(=O)c3ccc(F)c(Cl)c3)cc21
    -1 | -2 | 5339 | 7 | -23 | 1.1 | -4
COc1ccc(-c2n[nH]c(=S)n2N)c(OC)c1
    0 | 16 | 3756 | 1 | -21 | -2.3 | 8
Cc1noc(/C=C/N(C)C)c1S(=O)(=O)N1CCCC(C(=O)NCCC2=CCCCC2)C1 (stereo not given)
    -4 | 8 | 4180 | 1 | -6 | 16 | 5
Cc1ccc(C)c(N2CCN(C(c3ccc(N(C)C)cc3)c3nnnn3C(C)(C)C)CC2)c1 (stereo not given)
    / | / | 5054 | -1 | -10 | 2.9 | 6
COc1cc(C=NNC(=O)c2cc(-c3ccccc3)nc3ccccc23)ccc1O
    -13 | 3 | / | / | / | -1.4 | 5
O=P1(O)C=C(c2ccccc2)NC(c2ccccc2)=C1
    1 | 3 | 10138 | 3 | 0 | 3.3 | -2
O=C(O)CCCC(=O)Nc1cccc(C(F)(F)F)c1
    4 | 1 | 3992 | 2 | -10 | 3.4 | 8
CSc1ccccc1NC(=O)CN(C)C(=O)c1ccc(NC(=O)c2cccs2)cc1
    -4 | 2 | 3964 | / | -33 | -2.3 | -1
O=C1c2ccncc2C(=O)N1CO
    / | / | 2102 | -5 | 8 | -2.0 | 1
Cc1cc(NC(CC(C)C)C(=O)O)nc(Cc2ccccc2)n1 (stereo not given)
    / | / | 2399 | 9 | -29 | -5.0 | -8
Cc1nn(CC(=O)NCCCN2CCC(N3CCCCC3)CC2)c(=O)c2cc(-c3ccccc3)nn12
    12 | 10 | 5921 | 3 | -12 | 2.7 | 1
CCCCn1c(=O)c(CCC(=O)OCC(=O)Nc2ccc(C)c(Cl)c2)nc2ccccc21
    2 | 4 | / | 2 | / | 6.0 | 13

Every second line gives: Mtb hypoxia rep | Mtb hypoxia rep growth | Autofluor counter | BJeLR viability | PrP UTR inh | Sa RN4220 lethal | ugtP null kill
CCOC(=O)CNC(=O)Cn1cnc2c(cnn2-c2ccc(C)cc2)c1=O
    13 | 2 | 3652 | 5 | -22 | 1.2 | 7
CCCCC(CC)C1OCC(CN2CCCC2)O1 (stereo not given)
    3 | 0 | 19353* | 5 | -18 | -0.3 | 2
Cc1ccc(S(=O)(=O)N2CCOCC2)cc1NC(=O)COC(=O)C1=COCCO1
    10 | 0 | 6160 | -4 | -29 | 1.3 | 5
CN1CCN(c2ccccc2NC(=O)c2cc(Br)ccc2Cl)CC1
    / | / | 2083 | -1 | -22 | -0.1 | 10
Cc1ccc(C(=O)N/N=C/c2ccc3c(c2)OCO3)o1
    / | / | 2165 | -1 | -75 | / | /
CCCOc1cc(C)c(S(=O)(=O)n2nnc3ccccc32)cc1C
    1 | 2 | 16814* | 2 | -2 | 3.5 | 4
O=C(O)CCCC(=O)Nc1cc([N+](=O)[O-])ccc1O
    12 | 4 | 5286 | 2 | -21 | 1.9 | 3
CC(NC(=O)c1ccccc1)C(=O)NNC(=O)c1ccccc1Cl (stereo not given)
    0 | 1 | 6273 | / | -9 | 6.0 | 4
Cn1c(=O)c2c(nc(CN3CCC(C(N)=O)CC3)n2CCc2ccccc2)n(C)c1=O
    7 | 10 | 19348* | -4 | -22 | 4.9 | -2
CCc1cccc(NC(=O)CCC(=O)O)c1
    14 | 1 | 3151 | -13 | -2 | 3.3 | 5

Molecule	Mtb hypoxia rep	Mtb hypoxia rep growth	Autofluor counter	BJeLR viability	PrP UTR inh	Sa RN4220 lethal	ugtP null kill
CCOC(=O)c1c(C)[nH]c(C(=O)OCc2ccc(C)cc2)c1C	2	1	4884	-5	-16	1.5	-4
CC(C)c1ccc(Nc2ncccc2C#N)cc1	7	1	2928	-11	-70	-7.0	1
COC(=O)C1=C(c2c(C)noc2C)CC2CCC1N2C(=O)NCCOc1ccccc1Cl (stereo not given)	4	6	/	/	/	7.6	2
COc1ccc(N2CCN(C(=O)COC(=O)Cc3c(F)cccc3Cl)CC2)cc1	15	7	7063	-6	-16	2.2	2
c1ccc(-c2onc3c2CCCC3)cc1	13	-1	/	1	-26	9.5	2
Cc1ccc(-c2csc3ncnc(N4CCN(C(=O)c5ccco5)CC4)c23)cc1	0	6	?	/	8	3.4	-5
COc1cccc(/C=N/NC(=O)c2ccc(=O)[nH]n2)c1O	/	/	4779	-1	-4	/	/
Cc1onc(-c2ccc(Cl)cc2)c1-c1ccnn1S(=O)(=O)c1ccc(Cl)cc1	-10	1	3902	16	-28	-11	-15
Cc1ccc(Oc2ccc(OCC(=O)NC3CCS(=O)(=O)C3)cc2)cc1 (stereo not given)	4	3	3912	-2	-26	1.8	15
CCC(=O)OCCn1c(=O)c2cc3c(=O)n(CCOC(=O)CC)c(=O)c3cc2c1=O	1	2	12628	/	-1	0.8	-1
CCCC(c1nnnn1CS(=O)(=O)c1ccc(C)cc1)N1CCN(CC)CC1 (stereo not given)	-8	5	4168	-4	-9	0.8	2
CC1(C)SC2c3ccccc3C(=O)N2[C@@H]1C(=O)NCc1ccco1 (stereo not given in full)	/	/	6333	-4	-2	1.2	-4
COC(=O)c1ccccc1NC(=O)C1CCCCC1C(=O)O (stereo not given)	5	4	23211*	3	1	7.7	6
N#CC(C(=O)NCc1ccco1)c1nc2ccccc2nc1N1CCOCC1 (stereo not given)	0	12	3259	-4	-11	17	7
NC(=O)C1Cc2ccccc2CN1S(=O)(=O)c1ccc(Cl)s1 (stereo not given)	12	1	3577	3	-16	3.8	-7

Molecule	Mtb hypoxia rep	Mtb hypoxia rep growth	Autofluor counter	BJeLR viability	PrP UTR inh	Sa RN4220 lethal	ugtP null kill
Cc1nc2nc(SCC(=O)c3cccc([N+](=O)[O-])c3)[nH]c2cc1Br	/	/	2585	-3	-21	/	/
CCC1CCCCN1CCCNC(=O)COc1cc(=O)n(C)c2ccccc12 (stereo not given)	14	5	20141*	8	-39	4.3	-8
CCCc1cc(=O)oc2cc(C)cc(OC(C)C(=O)NCCCn3ccnc3)c12 (stereo not given)	-4	1	5522	4	-3	0.0	2
CCOC(=O)N1CCC(NC(=O)CCC(=O)N2CC(C)Oc3ccccc32)CC1 (stereo not given)	1	6	2696	3	-18	-16	-5
Cc1ccc(-n2c(SCC(=O)NC3CCS(=O)(=O)C3)nc3ccccc3c2=O)cc1C (stereo not given)	5	0	6965	0	-16	0.8	-4
CC1CCCN(C(=O)C(=O)c2cn(CC(=O)N3CCCCCC3)c3ccccc23)C1 (stereo not given)	-5	-2	7036	-9	-4	0.4	-3
O=C(CCCCCn1c(=O)[nH]c2ccccc2c1=O)N1CCN(Cc2ccc3c(c2)OCO3)CC1	4	14	9573	-1	-28	4.4	19
CC(C)CNC(=O)COC(=O)c1cccc(S(=O)(=O)NCC(F)(F)F)c1	9	6	4285	-1	-4	3.2	10
CC(=NNC(=O)c1ccncc1)c1cccc(NC(=O)c2ccc(Cl)s2)c1	22	22	/	/	/	3.7	0
CC(C[N+](C)(C)C)OC(N)=O (stereo not given)	-5	-3	5837	0	-5	3.1	-7
COc1ccccc1C(=O)Nn1c(C2CCC2)nc2ccccc2c1=O	11	3	23194*	-1	-25	5.2	-1
COCc1nnc(NS(=O)(=O)c2ccccc2)s1	-5	0	2977	-2	-16	0.8	2
CNC(=O)CSc1nc2c([nH]c3ccccc32)c(=O)n1CCOC	-9	11	2583	-16	-22	-1.5	-8
O=C(Nc1cccc(-c2cnc3ccccc3n2)c1)c1ccco1	1	9	3492	-7	-40	11	1
NS(=O)(=O)c1ccc(CNC(=O)c2ccc(C(=O)c3ccccc3)cc2)cc1	4	5	3662	/	-24	4.8	12

Molecule	Mtb hypoxia rep	Mtb hypoxia rep growth	Autofluor counter	BJeLR viability	PrP UTR inh	Sa RN4220 lethal	ugtP null kill
COc1ccccc1OCC#CCN1CCCC(C)C1 (stereo not given)	11	4	5002	1	18	8.0	7
CC1CN(C(C)CO)C(=O)c2cccc(NS(=O)(=O)c3ccc(F)cc3)c2OC1CN(C)Cc1ccc(Cl)c(Cl)c1 (stereo not given)	-2	9	/	/	/	-10	3
CCCNC(=O)c1ccc2c(c1)nc(C)n2-c1cccc(Cl)c1	-14	-1	3833	-1	3	-5.6	1
COCCn1c(=O)[nH]c2cc(C(=O)Nc3ccc(OC)c(Cl)c3)ccc2c1=O	-1	0	3681	3	-3	2.4	0
CCOC(=O)c1oc2c(c1C)C(=O)CCC2	6	10	8452	5	-26	2.7	-1
